Ba CapD inh: CapD enzyme inhibition. purified CapD enzyme, fluorescence intensity read-out; stronger effect = lower value; some hits fall short of the stated cut. z-score (test concentration not listed). actives 0.23% (n = 140,000). AID 492967;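 active = z-score under -4 in either of two replicates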;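 also: stock transfer was 100 nL into about 40 µL; score is relative to mean and spread of the plate; one replicate is shown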
AID504770: E. coli YBA685 growth inhibition, screen for V. cholerae RctB inhibitors. E. coli YBA685 rctB-dependent plasmid, OD600 growth, 3 h; stronger effect = lower value. z-score (concentration not given with the values). actives 0.27% (n = 130,000);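 active = z-score under -2 on both plates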;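 also: wells of about 30 µL received 100 nL stock; score is relative to mean and SD of the test wells; the first replicate is given; strong numbers were not always called active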
* marks the source's active call; other numbers are inactive results; · = not tested or not shown. A portion of the library (hit frequency here may not be typical).

SMILES	Ba CapD inh	AID504770
CCc1ccccc1NC(=O)c1cccc(NC(=O)/C=C/c2ccco2)c1	-1.7	-0.5
CC(C)(O)/C=C1/Oc2ccccc2C1N1CCCCC1 (centres undefined)	1.8	·
CNC(=S)Nc1ccc(N2CCOCC2)cc1	·	1.1
NS(=O)(=O)c1ccc(CCNC(=O)CCCCCn2c(=S)[nH]c3ccc(Br)cc3c2=O)cc1	-0.025	·
CCn1c(C(=O)NCc2ccc(OC)cc2)cc2sccc21	2.7	0
Cc1cc(C)c(C#N)c(N2CCCC2)n1	110	1.1
CCCC(=O)n1c2ccccc2c2nc3ccccc3nc21	3.2	·
COc1cc(C2=NOC(C(=O)N3CCCc4ccccc43)C2)cc(OC)c1OC (centres undefined)	-2	0.55
CCOC(=O)c1cc(-c2ccccc2)nc2nc(N3CCCC3)sc12	·	-1.1
CCCCc1ccc(NC(=O)/C=C2\SC(=O)NC2=O)cc1	·	-0.35
O=C1NC(=O)NC2(N1)C(=O)Nc1ccccc12	0.015	·
CC(C)C/C(=N/O)c1c[nH]c2ccccc12	5	0.4
Cc1cc(N(C)S(=O)(=O)c2ccc(N)cc2)nc(C)n1	-0.55	1.3
CCC(Sc1nc(Nc2ccc(F)c(F)c2)c2ccccc2n1)C(=O)NCCCOC (centres undefined)	1.2	·
OCc1ccccc1-c1ccccc1	-0.15	·
O=C(CN1C(=O)c2ccccc2S1(=O)=O)N1N=C2/C(=C/c3ccco3)CCCC2C1c1ccco1 (centres undefined)	·	-0.5
CN(C)CCNc1nc(Cc2ccccc2)nc2sc3c(c12)CCCC3	0.01	·
O=C1c2cccc3c(Br)c([N+](=O)[O-])cc(c23)C(=O)N1c1cccc([N+](=O)[O-])c1	-0.64	·
COC(=O)c1ccccc1NC(=O)c1ccc2c(c1)OCO2	26	0.95
O=CN1CCN(C(=O)COc2ccc(Br)cc2)CC1	0.12	0.8
COc1ccc(NC2C=CS(=O)(=O)C2)cc1 (centres undefined)	-0.62	-0.05
O=C(CSc1ccc2c3c(cccc13)C(=O)c1ccccc1-2)Nc1ccccc1	-0.53	·
CCOc1ccc(C2C(N3C(=O)c4c(Cl)c(Cl)c(Cl)c(Cl)c4C3=O)C(=O)N2c2cccc(OC)c2)cc1 (centres undefined)	-0.095	·
CCN(CC)C(=O)CSc1nc2cc3c(cc2c(=O)n1CCCC(=O)NCCc1ccc(OC)c(OC)c1)OCO3	-0.01	0.55
O=C(NCCSc1c[nH]c2ccccc12)c1ccc(N2C(=O)CCC2=O)cc1	-0.51	2.5

Already shown: an excerpt of the list.
SMILES	Ba CapD inh	AID504770
CCc1ccccc1NC(=O)c1cccc(NC(=O)/C=C/c2ccco2)c1	-1.7	-0.5
CC(C)(O)/C=C1/Oc2ccccc2C1N1CCCCC1 (centres undefined)	1.8	·
CNC(=S)Nc1ccc(N2CCOCC2)cc1	·	1.1
NS(=O)(=O)c1ccc(CCNC(=O)CCCCCn2c(=S)[nH]c3ccc(Br)cc3c2=O)cc1	-0.025	·
CCn1c(C(=O)NCc2ccc(OC)cc2)cc2sccc21	2.7	0
Cc1cc(C)c(C#N)c(N2CCCC2)n1	110	1.1
CCCC(=O)n1c2ccccc2c2nc3ccccc3nc21	3.2	·

New compounds follow:
SMILES	Ba CapD inh	AID504770
COC(=O)c1c(COC(=O)/C=C/c2ccc(Br)o2)nc2ccccc2c1C	·	-0.45
NC(=S)NCc1ccccc1	·	0
CCOc1ccc(C(=O)Nc2cccc(-c3nc4cc(C)cc(C)c4o3)c2)cc1Br	-0.34	·
CSc1cccc(N=C2C(=O)Nc3ccccc32)c1	·	0.45
CCOC(=O)N1CCN(C(=O)c2cn(CC)c3ccc(S(=O)(=O)N4CCCCC4)cc3c2=O)CC1	-0.11	0.55
N#CCc1nc(-c2ccc(-c3ccccc3)cc2)cs1	0.48	-0.1
S=c1[nH]c(-c2ccccc2)cn1-c1ccccc1	0.63	-0.55
Cc1cccc(OCCC(=O)O)c1	-0.15	-1.7
COc1ccc(CNC(=O)NC2CCCCC2)cc1	0.2	-1.1
COc1ccc(N2C(=O)c3ccccc3NC2c2ccc(OC)c(Cn3cc([N+](=O)[O-])cn3)c2)cc1 (centres undefined)	-1.1	·
Cc1nc2scc(-c3cccs3)c2c(=O)o1	·	-0.45
CN(C(=O)c1ccc(S(=O)(=O)N2CCCC2)cc1)c1ccccc1	-0.46	-2.5
NS(=O)(=O)c1ccc(Sc2ccc(Cl)cc2)s1	-0.17	·
Brc1ccc(CSc2nnc(SCc3ccc(Br)cc3)s2)cc1	0.61	·
Cc1c(C)[n+](=O)c2c(n1[O-])CCCCC2	0.51	0.2
COc1ccc(N2C(=O)/C(=C/c3ccc(OCC(=O)O)c(OC)c3)NC2=S)cc1	-2.4	·
N#Cc1cc(Sc2nc3ccccc3s2)c(N2CCOCC2)cc1C#N	0.35	·
CCCS(=O)(=O)Nc1ccc(N2CCN(c3ccc(C(F)(F)F)cn3)CC2)nc1	9.4	-0.75
C/C(C=Nc1ccccc1)=C\Nc1ccccc1	-5*	-1.1
Cc1ccc2cnn(CC(=O)NCc3ccccc3)c2c1	-0.15	1.3
CC(Oc1ccccc1)C(=O)N1CCCc2ccccc21 (centres undefined)	-0.2	-0.4
CC(Sc1nc2ccccc2c(=O)n1Cc1ccco1)C(=O)Nc1ccc2c(c1)OCCO2 (centres undefined)	·	0.35
Cc1ccc(-c2cn(/N=C/c3ccccc3)c(NC(=O)Nc3ccc(F)cc3F)n2)s1	-0.56	·
Cc1ccccc1C(=O)N1CCC(C(=O)Nc2ccc(F)c(Cl)c2)CC1	-0.56	-0.75
O=C(COC(=O)c1cc(-c2ccc(F)cc2)nc2ccccc12)Nc1ccccc1F	32	0.15

Profiles, quoted from the list. Order of values: Ba CapD inh	AID504770
`Brc1ccc(CSc2nnc(SCc3ccc(Br)cc3)s2)cc1` reads 0.61	·
`COc1ccc(N2C(=O)c3ccccc3NC2c2ccc(OC)c(Cn3cc([N+](=O)[O-])cn3)c2)cc1` (centres undefined) reads -1.1	·

Continued:
SMILES	Ba CapD inh	AID504770
CS/C(NC1CCCCC1)=C(/C#N)S(=O)(=O)c1ccc(Cl)cc1	0.015	1.2
Cc1cc(Br)ccc1N1C(=O)/C(=C/c2ccc(N3CCCC3)o2)C(=O)NC1=S	0.14	·
NNC(=O)CC(=O)NC1(Cc2ccc(O)cc2)CCCCC1	0.41	-0.65
O=C(c1cnn(C(=O)CN2C(=O)COc3ccccc32)c1)c1ccccc1O	·	1.6
O=C(Nc1ccccc1-c1nc2ccccc2[nH]1)c1ccccc1F	0.88	0.45
CCN1CCN(CCC(=O)Nc2ccc(F)cc2)CC1	·	-0.05
Cc1ccc2c(c1)C(SCC(=O)O)CC1(CCCC1)O2 (centres undefined)	·	-0.8
CC(=O)Nc1ccc(N=c2ssc3c2-c2ccccc2NC3(C)C)cc1	0.1	·
Cc1cccc(CC(=O)NC2CCCC2)c1	-1.3	2.5
O=C(NCc1ccccc1C(F)(F)F)c1ccc(-n2nc(-c3ccccc3)cc2-c2ccccc2)cc1	3.8	·
CCc1cc2c(cc3c(=O)[nH]nc(CC)n32)s1	1.7	-0.3
COC(=O)CSc1nc2sc3c(c2c(=O)n1-c1ccc(C)cc1)CC(C)(C)OC3	0.44	·
CC1CC(Nc2ccccc2)c2ccccc2N1C(=O)c1ccncc1 (centres undefined)	5.6	1.8
COC(=O)N/N=C\c1ccc(OC(=O)c2ccco2)cc1	10	-0.65
CCOc1ccc(NC(=O)CN2C(=O)/C(=C3\SC(N4CCOCC4)=NC3=O)c3ccccc32)cc1	-0.1	·
CCOc1ccc(C(=O)OCC(=O)Nc2ccc(N3CCOCC3)cc2)cc1	·	-0.4
CCC/C(O)=C1\C(=O)CC(C)(C)CC1=Nc1ccncc1	·	2.1
NC(=O)C1CCN(C(=O)CSc2ccccn2)CC1	0.055	0.35
O=C(NCc1ccc2c(c1)OCO2)c1ccc2c(=O)n(Cc3ccc4c(c3)OCO4)c(=S)[nH]c2c1	-0.045	·
Cc1c(Cl)cccc1N1C(=O)c2cccnc2C1=O	0.26	0.2
Cc1ccccc1Cn1ccc(NC(=O)CCSc2nc(-c3ccco3)cc(C(F)(F)F)n2)n1	0.28	-0.15
O=C(Nc1nc2ccccc2n1CCOc1ccccc1)c1cccc(F)c1	0.22	·
N#Cc1c(F)cccc1C(C#N)c1ccc(Cl)cc1Cl (centres undefined)	0.035	-1.1
O=S(=O)(c1ccccc1)c1ccc(S(=O)(=O)N2CCCCC2)s1	0.08	-0.3
CC(C)(C)c1ccc(C(=O)c2c[nH]c(C(=O)NCCCN3CCOCC3)c2)cc1	-0.46	·

Further records.
SMILES	Ba CapD inh	AID504770
Cc1ccc(NC(=O)c2c(F)cccc2Cl)cc1NS(C)(=O)=O	0.82	0.3
COc1ccc(OCCC(=O)Oc2ccc(OC)cc2)cc1	·	-0.25
CCOC(=O)c1sc2nc(C)cc(COC)c2c1NC(=O)c1ccccc1	0.21	·
CCN(CC)c1ccc(CNc2ccc3c(c2)ncn3C(C)(C)C)cc1	-4.6*	0.55
O=C(O)C1C2CCC(CC2)C1C(=O)NCc1ccccc1 (centres undefined)	0.38	0.1
COc1ccc(C(=O)Sc2ccc(C)cc2)cc1OC	-0.39	-0.9
Nc1ccc2nc(SCC(=O)Nc3ccc4nc(SCC(=O)N5CCOCC5)sc4c3)sc2c1	0.27	·
CCS(=O)(=O)N1Cc2ccccc2CC1C(=O)OCc1ccc(C#N)cc1 (centres undefined)	·	-0.75
CCN(CC)c1ccc2cc(-c3nnc(-c4cccs4)o3)c(=O)oc2c1	0.44	0.45
CCOc1ccc(N2C(=O)CC(Sc3nccc(C)n3)C2=O)cc1 (centres undefined)	-0.095	-0.4
CCS(=O)(=O)NCCc1sc(C)nc1C	·	1.5
CN(CC(=O)Nc1ccc(F)cc1)C(=O)CSc1nnc2n1CCCCC2	·	-0.25
Cc1ccc(N2CCN(C(=O)C3(C)CCC(C(=O)O)C3(C)C)CC2)cc1 (centres undefined)	-0.19	·
COCCn1c(SCc2nc3ccccc3c(=O)[nH]2)nnc1-c1ccncc1	·	0.25
CCOC(=O)c1ccc(-c2cccc(C(F)(F)F)c2)o1	2.3	1.5
Cc1cc(N2CCCC2=O)c(NC(=O)C2CCCCC2)cc1NC(=O)C1CCCCC1	·	0.05
O=c1c2oc3ccccc3c2n(Cc2ccccc2)c(=O)n1Cc1ccccc1	8.2	-0.6
CN1OC(CO)CC1c1ccccc1 (centres undefined)	0.18	1.7
O=C(COc1ccc(Cl)cc1Cl)Nc1nc2ccccc2[nH]1	0.19	0.05
Cc1cccc(OCCn2c(NC(=O)c3ccco3)nc3ccccc32)c1	1.2	·
COc1cc(OC)nc(C(Sc2ccc(NC(=O)c3ccc(Cl)nc3)cc2)c2ccccc2)n1 (centres undefined)	-0.46	·
COc1ccc([C@@H]2CC(=O)c3c(O)cc(O[C@@H]4OC(CO[C@@H]5OC(C)[C@H](O)[C@H](O)C5O)[C@@H](O)[C@@H](O)C4O)cc3O2)cc1O (some centres undefined)	-1	·
CSc1nnc2c(n1)OC(c1ccccc1)Nc1ccccc1-2 (centres undefined)	-0.21	-0.75
O=C(c1cc(C2CC2)on1)N1CCc2ccccc2C1	0.51	0.2
O=C(c1cccc(C(F)(F)F)c1)N1CCN(c2nc3ccccc3s2)CC1	0.98	·

Some of the entries so far, as comma-separated lines.
structure,Ba CapD inh,AID504770
O=c1c2oc3ccccc3c2n(Cc2ccccc2)c(=O)n1Cc1ccccc1,8.2,-0.6
CN1OC(CO)CC1c1ccccc1 (centres undefined),0.18,1.7
O=C(COc1ccc(Cl)cc1Cl)Nc1nc2ccccc2[nH]1,0.19,0.05

Next records.
SMILES	Ba CapD inh	AID504770
Cc1c(C(=O)N2CCCCC2C)sc2nc(-c3ccccc3)cn12 (centres undefined)	0.16	-0.75
CC(C)CC(NC(=O)c1ccc(Cl)cc1Cl)C(=O)N1CCN(c2ncccn2)CC1 (centres undefined)	·	0.35
COc1cc2[nH]c(=S)n(CCc3ccccc3)c(=O)c2cc1OC	2.6	0
CC(Nc1ccc(N2CCOCC2)cc1)C(=O)Nc1ccc(F)cc1Cl (centres undefined)	·	-0.5
O=C1CCC(=O)N1CNc1ccccc1C(F)(F)F	0.12	·
NNC(=O)c1cccs1	·	0.3
CCCCC(=O)Nc1cc(C)c2c(=O)oc3ccccc3c2n1	·	0.95
COc1ccc(CN(Cc2ccc(C(=O)NO)cc2)S(=O)(=O)c2ccc3c(c2)OCCO3)cc1OC	-0.075	2.2
COc1ccc2c(c1)C=C(C(=O)Nc1ccccc1)CO2	-0.68	-0.65
Cc1c(N=C2SCC(=O)N2/N=C\c2ccc(Br)cc2)c(=O)n(-c2ccccc2)n1C	-0.38	0.25
Cc1ccc(S(=O)(=O)NC(=O)N2CCCN(c3ncnc4scc(-c5ccccc5)c34)CC2)cc1	-0.18	·
O=C(c1ccc(Cl)c(Cl)c1)c1cnc(Nc2ccccc2Cl)s1	0.41	·
CCOc1ccc2nc(C34CC5CC(CC(C5)C3)C4)ccc2c1	1.5	1.1
CCCOc1ccc(C(=O)Nc2nonc2C)cc1	0.43	-0.6
O=C(OCc1ccccc1)c1ccc2ccccc2n1	0.42	-1.4
CC(=O)NC1(c2nnnn2CCOC(=O)Nc2ccc(Cl)cc2)CCCC1	-0.11	-0.2
CCOc1ccc(CCNC(=O)C2CCN(c3nnc(-n4cccc4)s3)CC2)cc1	0.56	-0.2
COC(=O)C1=CN(C(C(=O)OC)c2ccccc2)C=C(C(=O)OC)C1c1ccc(F)cc1 (centres undefined)	1.2	0.25
NC(=O)C1CCCN1Cc1nc(N)nc(Nc2ccccc2)n1 (centres undefined)	·	-0.7
CN(C)CCc1c[nH]c2ccc(C[C@H]3COC(=O)N3)cc12	·	0.45
CCOC(=O)c1ccsc1NC(=O)C1CC1	-0.54	0.95
CC(C)(C#N)C(C)(C)c1nn[nH]n1	-0.13	0.3
O=C(CCS(=O)(=O)Cc1ccccc1)N1CCc2ccccc21	-0.35	-0.55
